Compound activity (PubChem)
KCNQ2 block: KCNQ2 channel blockers in CHO-K1 cells – cell-based, FluxOR thallium flux, B-score, primary screen (AID 2156) | O88943 | 20 min; hits give low values; only compounds with negative scores are shown here; some inactives read as strong as hits | B-score at 10 µM | hit rate 1.1% among 310,000;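 active = fluorescence ratio B-score at most minus 3 library SDs, with starting brightness B-score within 2 library SDs, cut at about -5.5 in these data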
Target sequence (O88943 whole entry, looked up): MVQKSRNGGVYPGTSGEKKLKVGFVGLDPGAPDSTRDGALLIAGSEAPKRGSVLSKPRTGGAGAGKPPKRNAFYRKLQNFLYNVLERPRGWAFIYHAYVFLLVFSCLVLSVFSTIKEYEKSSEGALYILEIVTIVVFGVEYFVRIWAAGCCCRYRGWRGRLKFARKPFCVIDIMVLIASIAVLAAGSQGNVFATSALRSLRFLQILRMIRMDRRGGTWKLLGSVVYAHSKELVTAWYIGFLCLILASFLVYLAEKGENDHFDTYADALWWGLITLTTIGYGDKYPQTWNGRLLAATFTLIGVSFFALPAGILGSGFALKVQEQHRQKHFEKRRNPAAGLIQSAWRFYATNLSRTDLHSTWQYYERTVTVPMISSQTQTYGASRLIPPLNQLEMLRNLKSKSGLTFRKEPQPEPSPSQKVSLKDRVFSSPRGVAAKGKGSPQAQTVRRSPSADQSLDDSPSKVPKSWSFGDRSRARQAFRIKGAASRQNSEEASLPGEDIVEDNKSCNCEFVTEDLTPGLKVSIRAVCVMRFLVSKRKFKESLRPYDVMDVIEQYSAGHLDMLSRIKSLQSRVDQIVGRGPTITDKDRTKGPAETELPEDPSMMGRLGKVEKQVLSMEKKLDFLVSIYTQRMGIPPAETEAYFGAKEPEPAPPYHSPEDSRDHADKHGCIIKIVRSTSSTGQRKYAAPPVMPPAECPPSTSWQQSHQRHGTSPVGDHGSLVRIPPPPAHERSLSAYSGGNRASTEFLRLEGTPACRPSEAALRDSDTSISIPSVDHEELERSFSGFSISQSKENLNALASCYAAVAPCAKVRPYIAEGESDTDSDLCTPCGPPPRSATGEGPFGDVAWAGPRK
KCNQ2 block baseline: recorded beside KCNQ2 block, whose call it bears; B-score; measured here: initial fluorescence intensity artifact check;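 brightness before thallium and not channel activity; 0 = typical well and far values either way flag optical interference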
An asterisk follows results filed as active. An excerpt; count on the stated rates, not on these rows.

For Cc1ccc(C)c(NC(=O)c2ccccc2C(=O)c2ccccc2)c1 the results were KCNQ2 block -6.01* and KCNQ2 block baseline 0.22*.
For COc1ccc(NC(=O)NNC(=O)COc2ccc([N+](=O)[O-])c(C)c2)cc1OC the results were KCNQ2 block inactive and KCNQ2 block baseline -0.56.
Screening CCOc1ccccc1N(CC(=O)N1CCC(C)CC1)S(=O)(=O)c1ccc(C)cc1 returned KCNQ2 block inactive and KCNQ2 block baseline 0.02.
For COc1ccccc1NC(=O)Cn1c(CCC(=O)O)ccc1-c1ccccc1 the results were KCNQ2 block inactive and KCNQ2 block baseline -0.26.
`CCOc1ccccc1N1CCN(C(=O)Cc2ccc(S(=O)(=O)N3CCOCC3)s2)CC1` gave KCNQ2 block inactive and KCNQ2 block baseline -0.77.
Screening CC(=O)Nc1ccc(NC(=O)Nc2cc(C)cc(C)c2)cc1 returned KCNQ2 block inactive and KCNQ2 block baseline 0.51.
For CCOC(=O)N1CCC(NC(=O)c2ccc3c(c2)N(Cc2ccc(F)cc2)CCS3)CC1 the results were KCNQ2 block inactive and KCNQ2 block baseline 0.01.
`CCn1c(SCC(=O)N2CCCc3ccccc32)nc2cccnc21` gave KCNQ2 block inactive and KCNQ2 block baseline 0.38.
Cc1sc2ncnc(NCC3(N4CCOCC4)CCCCC3)c2c1C was read as KCNQ2 block inactive and KCNQ2 block baseline 0.77.
For O=C(c1ccccc1)N(CCO)Cc1cc2cc3c(cc2[nH]c1=O)OCCO3 the results were KCNQ2 block inactive and KCNQ2 block baseline 0.17.
O=C(/C(=C/c1ccccc1Cl)c1ccccc1)N1CCOCC1 was read as KCNQ2 block inactive and KCNQ2 block baseline -2.43.
Screening CCOC(=O)c1cc2cc([N+](=O)[O-])cc(OC)c2oc1=O returned KCNQ2 block inactive and KCNQ2 block baseline -0.06.
`CCOc1ccc(S(=O)(=O)N(C)c2ccc(OCC(=O)Nc3nc4ccccc4s3)cc2)cc1` gave KCNQ2 block -5.94* and KCNQ2 block baseline 0.99*.
`CSc1cccc(CN2CCCC(C(=O)Nc3cccc(-n4cccn4)c3)C2)c1` (stereo unspecified) gave KCNQ2 block inactive and KCNQ2 block baseline -0.16.
Cc1ccc(C23CC4CC(CC(C(=O)N(C)C)(C4)C2)C3)cc1 was read as KCNQ2 block inactive and KCNQ2 block baseline 0.2.
For CCSc1nc(N2CCCCC2)c2c(c1C#N)CCCC2 the results were KCNQ2 block inactive and KCNQ2 block baseline 1.17.
COc1cc(/C=N/NC(=O)c2ccc(CSc3nncn3C)cc2)ccc1OCC(=O)N1CC(C)OC(C)C1 (stereo unspecified) was read as KCNQ2 block inactive and KCNQ2 block baseline 2.57.
`CCN1C(=O)c2cccc3c(NC(=O)c4ccc5c(c4)OCCO5)ccc1c23` gave KCNQ2 block inactive and KCNQ2 block baseline 1.22.
`COc1ccccc1Cn1cnc2cccnc21` gave KCNQ2 block inactive and KCNQ2 block baseline 1.56.
`Cc1ccc(S(=O)(=O)N2CCN(S(C)(=O)=O)CC2)cc1` gave KCNQ2 block inactive and KCNQ2 block baseline 0.02.
Screening COc1ccccc1CNC(=O)CC(C)C returned KCNQ2 block inactive and KCNQ2 block baseline -0.36.
Screening COc1ccc(CC(=O)Nc2ccc(C(=O)O)cc2NC(=O)Cc2ccc(OC)cc2)cc1 returned KCNQ2 block inactive and KCNQ2 block baseline 1.06.
For COc1ccccc1CNC(=O)CSc1nc(=O)n(Cc2ccncc2)c2c1CCC2 the results were KCNQ2 block inactive and KCNQ2 block baseline -1.39.
CC1(C)CC(=O)c2cnc(N3CCc4ccccc43)nc2C1 was read as KCNQ2 block inactive and KCNQ2 block baseline 0.04.
COc1ccc(C(=O)O/N=C(\N)c2ccccn2)cc1[N+](=O)[O-] was read as KCNQ2 block inactive and KCNQ2 block baseline 0.18.
For CCOC(=O)C(=O)Nc1ccccc1C(N)=O the results were KCNQ2 block inactive and KCNQ2 block baseline 0.53.
COc1cc(NC(=O)N[C@H](C(=O)O)C(C)C)cc(OC)c1 was read as KCNQ2 block inactive and KCNQ2 block baseline -1.47.
For Cc1csc(=O)n1CC(=O)OCc1cccc2ccccc12 the results were KCNQ2 block inactive and KCNQ2 block baseline 0.56.
Screening CC(C)c1cc(CNC(=O)CC2C(=O)NCCN2CC2CCCCC2)on1 (stereo unspecified) returned KCNQ2 block inactive and KCNQ2 block baseline 0.3.
For COc1ccc(/C=N/NC(=O)C(=O)N2CCCCCC2)cc1 the results were KCNQ2 block inactive and KCNQ2 block baseline -0.63.
Screening COc1ccc(C2N(C(C)=O)CCN2S(=O)(=O)c2ccc(C)cc2)cc1 (stereo unspecified) returned KCNQ2 block inactive and KCNQ2 block baseline 0.65.
For COc1ccccc1NC(=O)C1=C(C)N(c2ccccc2)C(=S)NC1c1cccc(C(F)(F)F)c1 (stereo unspecified) the results were KCNQ2 block inactive and KCNQ2 block baseline -0.55.
Screening CCCC/S(CC1CC1(Cl)Cl)=N\S(=O)(=O)c1ccc(C)cc1 (stereo unspecified) returned KCNQ2 block inactive and KCNQ2 block baseline 1.01.
Screening Cc1ccc(S(=O)(=O)N2CCC(NC(=O)c3cccnc3)CC2)cc1Cl returned KCNQ2 block inactive and KCNQ2 block baseline 2.53.
Screening O=C1/C(=C/c2cccs2)CCC1C1CCCC1 (stereo unspecified) returned KCNQ2 block inactive and KCNQ2 block baseline -0.91.
O=C(c1ccccc1)N1CCN(S(=O)(=O)c2cccc(NS(=O)(=O)c3ccccc3)c2)CC1 was read as KCNQ2 block inactive and KCNQ2 block baseline 0.35.
For O=C(NCC1CCCCC1)C1CCC(=O)N(CCc2cccc(F)c2)C1 (stereo unspecified) the results were KCNQ2 block inactive and KCNQ2 block baseline -1.02.
Cc1cc(NC(=O)c2cccc(Oc3ccccc3)c2)n[nH]1 was read as KCNQ2 block inactive and KCNQ2 block baseline 1.73.
Screening O=C(CN1C(=O)c2ccccc2C1=O)NC1CCCCC1 returned KCNQ2 block inactive and KCNQ2 block baseline -1.1.
COc1ccc(-n2c(=O)[nH]cc(C(=O)N3CCc4ccccc43)c2=O)cc1 was read as KCNQ2 block inactive and KCNQ2 block baseline -1.34.

4 entries picked at random from those above:
For Cc1ccc(C)c(NC(=O)c2ccccc2C(=O)c2ccccc2)c1 the results were KCNQ2 block -6.01* and KCNQ2 block baseline 0.22*.
Screening CC(=O)Nc1ccc(NC(=O)Nc2cc(C)cc(C)c2)cc1 returned KCNQ2 block inactive and KCNQ2 block baseline 0.51.
For COc1ccc(NC(=O)NNC(=O)COc2ccc([N+](=O)[O-])c(C)c2)cc1OC the results were KCNQ2 block inactive and KCNQ2 block baseline -0.56.
For CCSc1nc(N2CCCCC2)c2c(c1C#N)CCCC2 the results were KCNQ2 block inactive and KCNQ2 block baseline 1.17.

Following part.
Screening CCOC(=O)c1[nH]c2cc(OC)c(OC)cc2c1NC(=O)C(C)N1CCN(Cc2ccccc2)CC1 (stereo unspecified) returned KCNQ2 block inactive and KCNQ2 block baseline -0.3.
COC(=O)C1=CN(Cc2ccc(C)cc2)C=C(C(=O)OC)C1c1cc(OC)c(OC)c(OC)c1 was read as KCNQ2 block inactive and KCNQ2 block baseline -0.48.
`Cc1ccccc1-c1ncc(CN2CCN(C3CCCCC3)C(CCO)C2)cn1` (stereo unspecified) gave KCNQ2 block inactive and KCNQ2 block baseline 0.47.
Screening O=C(CSc1nc(C2CC2)nc2ccccc12)N1c2ccccc2Sc2ccccc21 returned KCNQ2 block -6.1* and KCNQ2 block baseline 0.34*.
For COc1cccc(NC(=O)c2ccc(N3C(=O)C4CCC(C)CC4C3=O)cc2)c1 (stereo unspecified) the results were KCNQ2 block inactive and KCNQ2 block baseline -0.79.
`CC(C)C[C@H](N)c1nnc(SCC(=O)Nc2ccc(Br)cc2)o1` gave KCNQ2 block inactive and KCNQ2 block baseline 0.24.
Screening O=C(CCc1ccccc1)N1CCCC1 returned KCNQ2 block inactive and KCNQ2 block baseline -0.27.
For O=C(N/N=C/c1ccccc1Cl)c1cccc(F)c1 the results were KCNQ2 block inactive and KCNQ2 block baseline 2.32.
NNC(=O)C1=NOC(CNc2ncc(C(F)(F)F)cc2Cl)C1 (stereo unspecified) was read as KCNQ2 block inactive and KCNQ2 block baseline -0.87.
`O=C(CCCCCNc1nc(=S)[nH]c2ccccc12)NCCc1ccc(Cl)cc1` gave KCNQ2 block inactive and KCNQ2 block baseline -0.32.
`COc1ccc(NC(=O)CN(C)C(=O)c2ccc(NS(=O)(=O)c3ccc(C)c([N+](=O)[O-])c3)cc2)cc1` gave KCNQ2 block inactive and KCNQ2 block baseline -0.6.
Cc1cccc(N(C)C(=O)CCS(=O)(=O)c2cc3c(cc2Cl)NC(=O)CO3)c1 was read as KCNQ2 block inactive and KCNQ2 block baseline 0.08.
`COc1ccc(-c2cc(C#N)nc(N3CCNCC3)n2)cc1` gave KCNQ2 block inactive and KCNQ2 block baseline 0.41.
Screening C=CC(COCc1ccccc1)N(Cc1ccccc1)S(=O)(=O)c1ccccc1Br (stereo unspecified) returned KCNQ2 block -5.61* and KCNQ2 block baseline 0.16*.
O=C(O)CCCCCN=Cc1c(O)c2ccccc2oc1=O was read as KCNQ2 block inactive and KCNQ2 block baseline 2.71.
For Oc1ccc(CCNc2c3ccccc3nc3ccccc23)cc1O the results were KCNQ2 block inactive and KCNQ2 block baseline 0.39.
For O=C(Nc1ccccc1)OCCNC(=O)c1cccc(Br)c1 the results were KCNQ2 block inactive and KCNQ2 block baseline 1.51.
Screening COc1ccc2cc3cc(C(=O)NCC4COc5ccccc5O4)oc3nc2c1 (stereo unspecified) returned KCNQ2 block inactive and KCNQ2 block baseline -0.58.
`O=C(N/N=C\c1ccc(-c2ccc([N+](=O)[O-])cc2)o1)C1COc2ccccc2O1` (stereo unspecified) gave KCNQ2 block inactive and KCNQ2 block baseline 1.3.
Screening O=C(O)C1CCCN1C(=O)c1cccs1 (stereo unspecified) returned KCNQ2 block inactive and KCNQ2 block baseline 0.77.
For CCN(CC(=O)NCc1ccncc1)S(=O)(=O)c1ccccc1 the results were KCNQ2 block inactive and KCNQ2 block baseline -0.12.
Cc1ccc(-n2c(CCc3nc4ccccc4[nH]3)n[nH]c2=S)cc1 was read as KCNQ2 block inactive and KCNQ2 block baseline -2.12.
`Cc1ccc(S(=O)(=O)Cc2ccc([N+](=O)[O-])cc2)cc1` gave KCNQ2 block inactive and KCNQ2 block baseline -0.21.
`COc1cccc(CN2CCN(C(=O)CCc3nnc(C4CCCCC4)o3)CC2=O)c1` gave KCNQ2 block inactive and KCNQ2 block baseline -1.11.
Cc1cccc(NS(=O)(=O)c2ccc(-c3cnc(C4CC4)o3)cc2)c1 was read as KCNQ2 block inactive and KCNQ2 block baseline 0.11.
For COc1cccc(/C=C/c2onc(C)c2S(=O)(=O)N2CCC(C(=O)NC3CCCCCC3)CC2)c1 the results were KCNQ2 block inactive and KCNQ2 block baseline -0.11.

7 consecutive entries from above, for reference:
Screening O=C(O)C1CCCN1C(=O)c1cccs1 (stereo unspecified) returned KCNQ2 block inactive and KCNQ2 block baseline 0.77.
For CCN(CC(=O)NCc1ccncc1)S(=O)(=O)c1ccccc1 the results were KCNQ2 block inactive and KCNQ2 block baseline -0.12.
Cc1ccc(-n2c(CCc3nc4ccccc4[nH]3)n[nH]c2=S)cc1 was read as KCNQ2 block inactive and KCNQ2 block baseline -2.12.
`Cc1ccc(S(=O)(=O)Cc2ccc([N+](=O)[O-])cc2)cc1` gave KCNQ2 block inactive and KCNQ2 block baseline -0.21.
`COc1cccc(CN2CCN(C(=O)CCc3nnc(C4CCCCC4)o3)CC2=O)c1` gave KCNQ2 block inactive and KCNQ2 block baseline -1.11.
Cc1cccc(NS(=O)(=O)c2ccc(-c3cnc(C4CC4)o3)cc2)c1 was read as KCNQ2 block inactive and KCNQ2 block baseline 0.11.
For COc1cccc(/C=C/c2onc(C)c2S(=O)(=O)N2CCC(C(=O)NC3CCCCCC3)CC2)c1 the results were KCNQ2 block inactive and KCNQ2 block baseline -0.11.
